Bioassay records from PubChem BioAssay.
CapD inh: inhibitors of Bacillus anthracis CapD enzyme; purified CapD enzyme, fluorescence intensity read-out; stronger effect = lower value; some hits fall short of the stated cut; z-score (no concentration beside the values); 140,000 tested, 0.23% active;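 active = z-score under -4 in either of two replicates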;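 note: stock transfer was 100 nL into about 40 µL; score is relative to mean and spread of the plate; one replicate is shown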
AID504770: growth inhibitors of E. coli YBA685 in a screen for V. cholerae RctB (chromosome II replication) inhibitors; z-score (concentration not given with the values); E. coli YBA685 rctB-dependent plasmid, OD600 growth, 3 h; stronger effect = lower value; 130,000 tested, 0.27% active;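 active = z-score under -2 on both plates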;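 note: wells of about 30 µL received 100 nL stock; score is relative to mean and SD of the test wells; the first replicate is given; strong numbers were not always called active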
Numbers without * were called inactive; x = no result given; & = joins results of further samples. Compounds as they come; any-hit rate near 0.39%.

cpd	Compound	CapD inh	AID504770
1	N#CC(CCN1CCN(c2ccccc2)CC1)(c1ccccc1)c1ccccc1	-0.405	-0.3
2	CC12CCC(C(=O)N3CCCc4ccccc43)(CC1=O)C2(C)C (configuration not stated)	0.035	-1.05
3	CS(=O)(=O)N(Cc1cc2ccccc2[nH]c1=O)c1ccccc1	0.01	-0.25
4	N/C(Cc1nc(-c2cccc([N+](=O)[O-])c2)cs1)=N\O	-0.08	x
5	O=C(CNC(=O)Nc1ccc(Cl)c(Cl)c1)NC1CC1	x	-0.4
6	C=CCSc1nnc(C(C)c2ncc(C(F)(F)F)cc2Cl)n1C (configuration not stated)	0.01	x
7	CC(C)(C)c1ccc2c(c1)C1c3ccc(C(C)(C)C)cc3C2C2C(=O)N(c3cccc(Cl)c3)C(=O)C12 (configuration not stated)	-0.13	x
8	O=C(O)CSc1ccc(Cl)cc1	0.145	x
9	CC1CC(=O)c2cnc(N3CCOCC3)nc2C1 (configuration not stated)	-0.29	-1.6
10	CCOC(=O)Nc1cccc2nsnc12	-0.25	-0.75
11	Cc1cc(-c2ccc(Cl)cc2)c2c(=O)[nH][nH]c2n1	x	0
12	O=c1ccc(-c2ccc(S(=O)(=O)NCCSCc3ccco3)s2)n[nH]1	2.24	-0.7

Additional records.
cpd	Compound	CapD inh	AID504770
13	Cc1ccccc1Nc1nnc(SCC(=O)NC2CCC(C)CC2)s1 (configuration not stated)	x	2.3
14	O=C(NC1CCCC1)c1ccc(CS(=O)(=O)c2c(Cl)cccc2Cl)o1	0.435	-0.8
15	Cn1cc(S(=O)(=O)NCCc2ccccc2)c(=O)n(C)c1=O	x	-0.45
16	CC(C)c1nc2ccc(Cl)cc2c2c1C(=O)N(NC(=O)c1ccc(Cl)nc1)C2=O	0.28	x
17	Cn1ccsc1=NC(=O)c1cccc(S(=O)(=O)N2CCCCC2)c1	x	-0.15
18	COc1ccc(/C=N/n2cnc3c([nH]c4ccc(F)cc43)c2=O)cc1	-0.78	-0.5
19	O=C(Oc1ccc(-c2ccccc2)c(F)c1)c1cccc(Cl)c1Cl	-0.08	x
20	NCC(O)c1ccc(O)cc1 (configuration not stated)	0.445&-0.975	-0.1
21	Cc1nc2ccccn2c1-c1ccnc(SCC(=O)Nc2ccc(C(C)C)cc2)n1	89.3	-1.15
22	O=C(NCCc1ccc(Cl)cc1)c1ccc2c(=O)n(-c3ccccc3)c(=O)[nH]c2c1	-1.28	-0.15
23	CC(CCC(=O)O)[C@H]1CCC2C3CC[C@@H]4C[C@H](O)CC[C@]4(C)C3CC[C@@]21C (some centres not stated)	x	0.55
24	Cc1oc2nc[nH]c(=O)c2c1C(=O)OC(C)C(=O)N1CCOCC1 (configuration not stated)	x	0

Following part:
cpd	Compound	CapD inh	AID504770
25	O=c1[nH][nH]c(=O)n1/N=C/C=C\c1ccccc1	-0.125	-0.35
26	CCCn1c(SCC(=O)c2ccccc2)nnc1C(C)C	x	2.65
27	O=C(COc1ccc2c(=O)c(Oc3ccccc3Br)coc2c1)OC1CCCCC1	-0.385	x
28	CCOC(=O)c1c(C)cc(C)[nH]c1=O	16.5&6.96	0.35&-0.6
29	Cc1ccccc1N(C)S(=O)(=O)c1ccc2[nH]cc(C(=O)NCCC(C)C)c(=O)c2c1	61.2	0.2
30	Cc1ccc(/C=N/N2CCCCC2)o1	x	-0.7
31	O=C(c1ccc([N+](=O)[O-])cc1)N1CCc2c([nH]c3ccccc23)C1c1ccc(Cl)cc1 (configuration not stated)	-0.41	x
32	C=CCn1c(=N)n(CC(O)COc2cccc(C)c2)c2ccccc21 (configuration not stated)	0.24	-0.75
33	CC(=O)Nc1ccc(NC(=O)OCCc2cccc(Cl)c2)cc1	-1.1	x
34	COc1ccc(/C=N/n2c(C)nnc2-n2nc(C)cc2C)cc1O	-0.805	x
35	CCOc1ccc(OCCSc2nnnn2-c2ccccc2)cc1	0.5	0.6
36	COC(=O)C(Cc1ccccc1)NC(=O)c1cc(-c2ccc3c(c2)OCCO3)oc1C (configuration not stated)	1.34	-0.25

2 compounds picked at random from those above, as already listed:
cpd	Compound	CapD inh	AID504770
26	CCCn1c(SCC(=O)c2ccccc2)nnc1C(C)C	x	2.65
30	Cc1ccc(/C=N/N2CCCCC2)o1	x	-0.7

Following part:
cpd	Compound	CapD inh	AID504770
37	Cc1ccc(C)n1-c1oc(-c2ccco2)c(-c2ccco2)c1C#N	17.1	0
38	CC1CC(C)CN(CCCNC(=O)Cn2c3ccccc3c3cn[nH]c(=O)c32)C1 (configuration not stated)	-0.775	-1
39	Nc1nc2ccc(C(=O)OC3CCCCC3)cc2s1	5.85	3.05
40	CC(=O)N[C@H]1[C@@H](OCc2ccccc2)O[C@@H]2COC(c3ccccc3)O[C@H]2[C@@H]1O (some centres not stated)	0.04	x
41	Cc1ccc(C)c(-c2nnc(NC(=O)c3ccc(S(=O)(=O)N4CCc5ccccc54)cc3)o2)c1	x	-0.65
42	CSc1n[nH]c(NS(=O)(=O)c2ccccc2Cl)c1-c1ccccn1	-0.24	-0.3
43	O=C(/C=C/c1ccco1)Nc1ccc(S(=O)(=O)N2CCCCC2)cc1	-0.21	-1.15
44	COc1ccc(S(=O)(=O)N(Cc2ccccc2)Cc2nc3ccccc3c(=O)[nH]2)cc1	x	-0.05
45	CC(C)(C)C(=O)NC1CCN(S(=O)(=O)c2ccccc2C(=O)O)CC1	x	-0.75
46	CC(C)OC(=O)c1sc2nc3c(cc2c1N)C(=O)CCC3	x	1.6
47	CCC(=O)Nc1ncc2c(n1)CC(c1ccc(N(C)C)cc1)CC2=O (configuration not stated)	0.07	-0.2
48	O=C(O)C1CCCN(S(=O)(=O)Cc2ccccc2)C1 (configuration not stated)	-0.375	-1.05

Other compounds follow:
cpd	Compound	CapD inh	AID504770
49	O=C(Nc1ccc(Cl)c(Cl)c1)c1cc(S(=O)(=O)N2CC3CC(C2)c2cccc(=O)n2C3)ccc1F (configuration not stated)	0.37	x
50	Cc1[nH]nc2c1C(c1ccc3ccccc3c1)CC(=O)N2 (configuration not stated)	-0.225	-0.95
51	Cn1ccnc1SCC(=O)Nc1ccc(S(N)(=O)=O)cc1	-0.295	-1.25
52	CC(C)(C)c1ccc(C(=O)N(C(=O)c2ccc(C(C)(C)C)cc2)c2nccc3cccnc23)cc1	-0.945	x
53	C=CCNC(=O)c1cc(-c2ccccc2)on1	x	-0.1
54	Clc1cccc(SCc2cccc3ccccc23)c1Cl	0.38	x
55	O=C(CCCCCN1C(=O)C2C3C=CC(C3)C2C1=O)Nc1nccs1 (configuration not stated)	-0.135	0.2
56	COc1ccc(C2=NN(C(=O)c3ccc(C)cc3)CC2)cc1	-1.38	1.1
57	O=C(Nc1nc2c(F)cccc2s1)c1cccs1	0.2	-0.1
58	O=C(c1cccs1)C1CCCCC1	0.03	-2.75
59	CN(C)c1ccc(/C=N/c2nnc(NC(=O)c3ccccc3Br)s2)cc1	-0.28	0.6
60	Cc1ccc(OCCSc2nc3ccccc3n2CC(=O)O)cc1C	0.445	x

Reformatted with two lines to a compound: part of the list above.
Second line of a record – CapD inh	AID504770
#53 C=CCNC(=O)c1cc(-c2ccccc2)on1
→ x	-0.1
#54 Clc1cccc(SCc2cccc3ccccc23)c1Cl
→ 0.38	x
#55 O=C(CCCCCN1C(=O)C2C3C=CC(C3)C2C1=O)Nc1nccs1 (configuration not stated)
→ -0.135	0.2
#56 COc1ccc(C2=NN(C(=O)c3ccc(C)cc3)CC2)cc1
→ -1.38	1.1

Sorted by length of the SMILES (highest first): some entries from above
cpd	Compound	CapD inh	AID504770
23	CC(CCC(=O)O)[C@H]1CCC2C3CC[C@@H]4C[C@H](O)CC[C@]4(C)C3CC[C@@]21C (some centres not stated)	x	0.55
29	Cc1ccccc1N(C)S(=O)(=O)c1ccc2[nH]cc(C(=O)NCCC(C)C)c(=O)c2c1	61.2	0.2
42	CSc1n[nH]c(NS(=O)(=O)c2ccccc2Cl)c1-c1ccccn1	-0.24	-0.3
33	CC(=O)Nc1ccc(NC(=O)OCCc2cccc(Cl)c2)cc1	-1.1	x
25	O=c1[nH][nH]c(=O)n1/N=C/C=C\c1ccccc1	-0.125	-0.35

Additional entries:
cpd	Compound	CapD inh	AID504770
61	O=C(c1cccs1)N1CCN(c2ccccc2)CC1	-1.01	0.75
62	CC(OC(=O)c1ccc(NC(=O)Cc2ccccc2)cc1)C(=O)c1ccccc1 (configuration not stated)	-0.34	1.75
63	COc1cc(C2C(C#N)=C(N)Oc3n[nH]c(-c4ccc(Cl)c(Cl)c4)c32)ccc1O (configuration not stated)	-0.405	x
64	O=C(Nc1ccc(Cl)cc1)N1CCC(O)CC1	x	1.75
65	CCOC(=O)C1CCCN(C(=O)c2sc3nc(C)nc(N4CCN(c5ccccn5)CC4)c3c2C)C1 (configuration not stated)	-0.45	x
66	CCOc1ccc(-n2cc(C(=O)Nc3ccc(N4CCOCC4)cc3)nn2)cc1	0.215	-0.25
67	Cc1ccccc1C1CC(=O)NC(SCC(=O)Nc2ccccc2)=C1C#N (configuration not stated)	-0.68	0.6
68	Cc1cc(C)c(C)c(S(=O)(=O)N2CCN(C(=O)OCc3ccccc3)CC2)c1C	0.55	x
69	Cn1ncc2c(O/N=C/c3ccc(Cl)cc3Cl)ncnc21	0.695	-0.75
70	CCSc1nnc(-c2ccc(Cl)cc2)o1	-0.1	-0.5
71	CCCc1[nH]n(-c2ccc(F)cc2)c(=O)c1C=Nc1ccc(Cl)cc1C	-0.62	x
72	COCCNC(=O)COCCn1cc(-c2ccc(Cl)cc2)cn1	-0.385	x

(cont.)
cpd	Compound	CapD inh	AID504770
73	C=CCNC(=O)c1cc2n(n1)C(C(F)(F)F)CC(c1ccco1)N2 (configuration not stated)	x	-0.5
74	NC(=O)C1CCN(C(=O)COC(=O)C23CC4CC(CC(C4)C2)C3)CC1	x	2.05
75	CCc1oc(C(=O)O)cc1COC	x	-0.45
76	Cc1cc(=O)[nH]c(SCC(=O)OCc2ccccc2)c1C#N	x	0.45
77	Cc1ccccc1N=Cc1c(C(F)(F)F)[nH]n(-c2nc3ccccc3s2)c1=O	0.515	x
78	CC1=C(C(=O)OC2CCCC2)C(c2ccccc2)NC(=O)N1 (configuration not stated)	-0.055	1.05
79	CN(C)Cc1nc2ccccc2c(=O)[nH]1	x	-0.25
80	Cc1c(Cl)cccc1NC(=S)N(CCCN1CCCC(C)C1)Cc1ccco1 (configuration not stated)	0.555	-0.15
81	COc1ccc2oc(=O)c(-c3nnc(NCc4ccc5c(c4)OCO5)s3)cc2c1	0.92	-0.65
82	CCNC(=S)NNC(=O)c1ccc(=O)n(Cc2cccc(C(F)(F)F)c2)c1	0.31	x
83	COC(=O)c1c(C)c[nH]c1C	x	0.4
84	CC(C)NCC(O)Cn1c2c(c3ccccc31)CCCC2=O (configuration not stated)	6.87	2.15

Remaining list, next part:
cpd	Compound	CapD inh	AID504770
85	CCOC(=O)COc1ccc(C=Nc2c(C)n(C)n(-c3ccccc3)c2=O)cc1OC	0.21	x
86	CCOc1ccc(C2Oc3c(OCC)cccc3C3CC(c4cccc(OC)c4)=NN32)cc1 (configuration not stated)	0.325	x
87	COC(=O)c1cccc(Nc2cc(C)nc3ccccc23)c1	0.93	-0.35
88	COC(=O)C1=C(Nc2ccc(F)cc2F)CSC1	0.33	0.5
89	COc1ccc(NC(=O)c2sc3nc(C)nc(N4CCN(C)CC4)c3c2C)cc1Cl	-0.61	x
90	O=C(c1ccc(Br)cc1)c1cc2cc(Br)cc(Br)c2o1	-0.415	x
91	Cc1cccc(-c2nnc(C(C)Oc3cc(Cl)ccc3Cl)o2)c1 (configuration not stated)	x	1.25
92	CCn1nc(C)cc1-c1nnc(SC)n1-c1cccc(C(F)(F)F)c1	0.3	-0.2
93	O=C(c1ccccc1)N(C(=O)c1ccccc1)C(=O)c1ccccc1	0.33	0.75
94	CC(NC(=O)Nc1ccc2c(c1)OCO2)c1ccncc1 (configuration not stated)	1.02	0
95	CCCCSc1nnc(CNC(=O)c2ccc(OC)cc2)n1CCCC	x	0.2
96	Cc1ccc2c(c1)c1c3n2CCN(C(=O)c2c(-c4ccccc4Cl)noc2C)C3CCC1 (configuration not stated)	0.415	-0.4

Remaining list, next part
cpd	Compound	CapD inh	AID504770
97	Cc1cc(C(=O)NN)n(C(C)(C)C)n1	10.9	-0.55
98	CCOc1ccc(NC(=O)C2CC(=O)N(CC)C(=Nc3ccc(Cl)cc3)S2)cc1 (configuration not stated)	0.4	x
99	Cc1ccc(S(=O)(=O)N2CCN(C(=O)CCC(=O)NC3CCCc4ccccc43)CC2)cc1 (configuration not stated)	x	-1.4
100	O=S(=O)(NCCc1ccncc1)c1c(F)cccc1F	-0.94	x
101	O=C(Nc1ccc(N2CCCCCC2)cc1)c1ccncc1	x	-0.75
102	Nc1ncc(-c2nnnn2-c2ccccc2)c(-c2ccccc2)n1	3.49	-1.15
103	Cc1cc(=S)n(-c2ccccc2)n1C	-0.075	-0.6
104	Cc1c(C(=O)N(C)C)sc2c1c(=O)n(-c1ccccc1C(F)(F)F)c(=O)n2CC(N)=O	0.23	-0.35
105	S=C(NCc1ccccc1)N/N=C/c1ccco1	-1.71	1.05
106	Cc1ccc2nc(Sc3cccc(Cl)c3)[nH]c2c1	0.08	0
107	O=C1CCCCC1Sc1nnc(-c2ccco2)n1-c1ccccc1 (configuration not stated)	x	0.05
108	COC(=S)Nc1ccc(N2CC(C)OC(C)C2)cc1 (configuration not stated)	-0.045	-0.15

The list continues.
cpd	Compound	CapD inh	AID504770
109	O=C1C(O)=C(O)C(=O)C(O)=C1O	-0.165&-0.665	0.3
110	CCCc1cc(=O)n2nc(N3CCC(C(=O)Nc4ccc(CC)cc4)CC3)sc2n1	-0.28	-0.6
111	O=c1oc2ccccc2c2c1nc(C(F)(F)F)n2-c1ccccc1	11.1	-0.2
112	CCc1nc2ccccc2c(=O)n1-c1cccc(OC)c1	x	0.25
